# Bioassay records deposited in PubChem by several laboratories.
# MT1-MMP act inh – blockers of MT1-MMP proenzyme processing, primary screen, HT1080 RFP-PRO-GFP cells, GFP/RFP fluorescence | GFP/RFP ratio fluorescence, overnight; percent of plate control window, DMSO zero | Matrix metalloproteinase-14 (Homo sapiens), P50281 | GFP/RFP ratio change, % at 20 µM | AID 651647, 2012 | 360,000 compounds, 0.061% hits;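 active means GFP/RFP ratio change of at least 30% with cell ATP level not reduced by more than half and red fluorescence within 50% of control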; further: strong numbers were not always called active
#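 Assay system: HT1080 cells carrying an RFP-PRO-GFP reporter | Dosing: Single dose of 20 µM compound, 1% DMSO final | Incubation: Cells overnight before dosing, compound overnight, 37 °C, 5% CO2 | Evaluation: GFP/RFP fluorescence ratio | Control set: DMSO and RFP-L50D-GFP cell wells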
# Rce1 inh – yeast Rce1p protease inhibitors, primary screen, biochemical, fluorescence, cell-free homogeneous; 290,000 compounds, 0.27% hits; CAAX prenyl protease 2 (Saccharomyces cerevisiae (strain ATCC 204508 / S288c)), Q03530; calls only; yeast membranes, quenched prenylated peptide cleavage fluorescence;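 active means fall in fluorescence gain of 50% or more versus controls, with final raw signal at or below 3038400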;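 further: plate controls were neutral control wells for no effect and wells lacking membranes for full effect; tested at 10 µM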
# Target sequence (Q03530 whole entry, looked up): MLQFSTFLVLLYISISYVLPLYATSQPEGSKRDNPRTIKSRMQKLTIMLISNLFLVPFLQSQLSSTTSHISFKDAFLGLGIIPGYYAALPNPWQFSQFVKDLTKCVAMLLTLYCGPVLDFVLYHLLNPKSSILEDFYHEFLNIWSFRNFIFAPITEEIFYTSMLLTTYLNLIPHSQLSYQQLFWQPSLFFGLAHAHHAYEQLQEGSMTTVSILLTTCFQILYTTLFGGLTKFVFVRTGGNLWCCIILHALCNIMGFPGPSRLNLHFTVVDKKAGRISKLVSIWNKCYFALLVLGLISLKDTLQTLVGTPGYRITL
# HIV Env fusion – inhibitors of HIV-1 Env-driven cell-cell fusion, primary screen, HeLa-JRFL effector, CEM21 target cells, luciferase; 360,000 compounds, 1.1% hits; AID 651610, 2012; inhibition, % at 12.3 µM;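 active means mean replicate inhibition score of at least 50 and every replicate individually at or above 50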;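 further: 0% = plate neutral controls and 100% = maraviroc near 300 nM; one replicate is shown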
# Yeast UUG start – modulators of yeast start codon fidelity, primary screen, whole organism, S. cerevisiae, single point, plate reader; AID 602363, 2012; 350,000 compounds, 0.13% hits; S. cerevisiae UUG-firefly luciferase reporter, luminescence/redox ratio; activity score, % at 18.7 µM;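 active means replicate mean at a twofold rise or more, about +100% in these data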;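 further: firefly luciferase made from a UUG start codon reports start codon fidelity; reporter light over untreated wells divided by growth signal over untreated wells; some hits fall short of that in this replicate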
# CSC inhib – cancer stem cell viability inhibitors, primary screen, luminescence. cancer stem cell-like cells viability. inhibition, % at 7.5 µM. 300,000 compounds, 1.1% hits. AID 2717, 2010;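 active means mean at 75% or more and at least half the replicates too; tested in HMLE shEcad cells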;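 further: 0% = median of negative and 100% = median of positive control wells; the first replicate is given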
# PABP polyA inh – PABP poly(A) RNA binding inhibitors, primary screen, biochemical, fluorescence polarization, uHTS. Polyadenylate-binding protein 1 (Homo sapiens), P11940. inhibition, % at 35 µM. 290,000 compounds, 1% hits. AID 2014, 2009;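 active means 50% or more with normal probe brightness, or confirmed in later tests; about a fifth of its hits are not listed in these tables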;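 further: calls also rest on retests at 20 µM and on dose response follow-up; controls were probe without protein and protein plus probe with vehicle; some compounds called inactive have numbers as strong as hits; many hits fall short of the cut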
# eIF4H inh – human eIF4H binding inhibitors, primary screen, translation initiation inhibitor project, biochemical, uHTS, fluorescence polarization; Eukaryotic translation initiation factor 4H (Homo sapiens), Q15056; eIF4H fluorescence polarization binding assay; inhibition, % at 35 µM; 290,000 compounds, 0.94% hits; AID 2012, 2009;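 active means 50% or more with normal probe brightness, or confirmed in later tests; about a fifth of its hits are not listed in these tables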;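 further: calls also rest on retests at 20 µM and on dose response follow-up; 0% = protein and probe with vehicle and 100% = probe without protein; strong numbers were not always called active; many hits fall short of the cut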
# eIF4H inh retest – also measured in eIF4H inh; calls as there; inhibition, %; compound at 20 µM; confirmation average;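 mean of two retest wells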
# PABP polyA inh retest – also measured in PABP polyA inh; calls as there; inhibition, %; compound at 20 µM; confirmation repeats;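 mean of two retest wells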
# MT1-MMP act inh RFP – further read-out of MT1-MMP act inh, marked with its call; RFP signal change, %; measured here: RFP expression control read;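 0 = vehicle wells; hits needed this value within 50% of zero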
# Numbers without * were called inactive; i = inactive; nt = not tested or not shown; & = joins results of further samples; [ ] = dose if it differs, or a comment. Only part of the results is shown; count on the stated rates, not on these rows.
SMILES,MT1-MMP act inh,MT1-MMP act inh RFP,Rce1 inh,HIV Env fusion,Yeast UUG start,CSC inhib,PABP polyA inh,eIF4H inh,others
O=C(NC(Cc1ccccc1)c1nc2ccccc2[nH]1)C1CC(=O)N(c2ccc3c(c2)OCCO3)C1 (configuration not stated),-1,-1,i,-28,-17,-7,nt,nt,
CCOC(=O)c1cc(=O)c2ccc(OCC(=O)Nc3ccc(F)cc3)cc2o1,1,1,i,22,nt,-12,-3,-4,
CCOC(=O)CN1N=C(c2ccc(Cl)cc2)CCC1=O,0,3,i,28,8,-10,2,44,
O=C(CN1CCCC1)N1c2ccccc2C=Cc2ccccc21,-1,0,i,0,nt,-5,4,-7,
CN(CC(=O)Nc1ccc(S(N)(=O)=O)cc1)c1ccccc1,6,7,i,nt,-4,-2,4,-4,
O=S(=O)(Nc1ccccc1N1CCCC1)c1ccccc1C(F)(F)F,2,-6,nt,9,-15,nt,nt,nt,
O=C(O)C1=C[C@@H](c2ccc(Br)cc2)C[C@@H](OCCCCO)O1,-2,4,i,-11[16.7 µM],17&0,-15,nt,nt,
COc1ccc(-n2cnc3cc(C(=O)N4CCOCC4)ccc32)cc1,1,5,i,-27,-5,-15,-6,-14,
COc1ccc(NC(=O)/C(C#N)=C/c2ncc([N+](=O)[O-])n2C)c(OC)c1,2,0,i,-11,4,-13,-1,4,
CN(NC(=O)c1ccccc1Cl)c1ncc(C(F)(F)F)cc1Cl,-1,-1,i,-5,nt,-7,-3,-5,

# The final two records of the section before are carried over, then new ones follow:
SMILES,MT1-MMP act inh,MT1-MMP act inh RFP,Rce1 inh,HIV Env fusion,Yeast UUG start,CSC inhib,PABP polyA inh,eIF4H inh,others
COc1ccc(NC(=O)/C(C#N)=C/c2ncc([N+](=O)[O-])n2C)c(OC)c1,2,0,i,-11,4,-13,-1,4,
CN(NC(=O)c1ccccc1Cl)c1ncc(C(F)(F)F)cc1Cl,-1,-1,i,-5,nt,-7,-3,-5,
COc1ccccc1NC(=O)C(NC(=O)OC(C)(C)C)C(C)OCc1ccccc1 (configuration not stated),-11,-4,i,nt,nt,-1,0,-1,
CC(C)(C)c1ccc(C(=O)NC(CC(=O)O)c2ccc(OC3CCCC3)cc2)cc1 (configuration not stated),-5,-4,i,-8,-1,4,5,-1,
OCC[C@@H]1C[C@H](O)[C@@H](O)[C@@]2(OCc3cc(C(F)(F)F)ccc32)O1,4,-1,nt,21,10,nt,nt,nt,
COc1ccc(Cl)c(NCCC(=O)O)c1,-2,2,i,-56,-11,-13,-4,9,
CCc1ccc(/C=C2/Sc3ccccc3N(CC(=O)NCCCN3CCOCC3)C2=O)cc1,5,4,i,-1,-10,6,5,-14,
O=C(CNCCO)N1CCc2ccccc21,-2,0,i,nt,-8,-14,3,13,
O=C(c1ccccc1)c1ccc(OCC(O)CNCc2ccc(Cl)cc2)cc1 (configuration not stated),-1,-2,i,19,1,21,1,4,
CCCN(C(=O)Cc1coc2cc(OC)ccc12)C1CCS(=O)(=O)C1 (configuration not stated),1,0,nt,nt,-2,-9,nt,nt,
O=C(CSc1nc2ccc([N+](=O)[O-])cc2[nH]1)NC1CCCCCC1,-7,-21,i,116*,-15,15,3,-8,
CN(C)c1ccc(/C=N/O)cc1,2,4,i,-11,nt,-16,-9,-15,
COc1cc(/C=C(/C#N)c2nc3ccccc3[nH]2)ccc1OCC(=O)Nc1ccccc1C,-13,-3,nt,nt,11,83*,2,3,
O=C(N[C@@H](c1ccccc1)[C@@H]1C[C@H]1C(=O)NCc1ccccn1)OCc1ccccc1,-3,1,i,17,-26,0,-8,8,
COc1ccc(CCNC(=O)Cn2ccc3c(OC)cccc3c2=O)cc1OC,4,1,i,0,nt,-11,-3,-4,
CC12CCC(C1)C(C)(C)C2OC(=O)c1ccccc1C(=O)O (configuration not stated),-1,-2,i,4,nt,0,2,-10,
CN(c1ccccc1)c1nc(N)c([N+](=O)[O-])c(Nc2ccccc2)n1,6,5,i,-8,-12,8,-4,-3,
COCCNC(=O)c1onc(CCl)c1C(=O)OC,7,4,i,-28,-17,-11,8,-9,
COc1ccc(N2C(=O)C(Cl)=C(Nc3ccc(OC)cc3OC)C2=O)cc1,4,5,i,-19,-11,7,-2,-1,
Cc1cccc(NC(=O)COc2ccc(Br)cc2)n1,1,0,i,nt,nt,-10,0,-5,
CCCn1c(C2CCCN2c2nc(-c3ccc(OC)cc3)cs2)nc2ccccc21 (configuration not stated),-2,-2,i,nt,15,7,3,1,
COc1cccc(NC(=O)N2CCCC2C(=O)NCc2ccccc2F)c1 (configuration not stated),0,1,i,3,nt,-14,1,7,
Cc1ccccc1C(=O)Nc1ccccc1,0,1,i,nt,-13,-8,3,4,
CC1CCC(C(C)C)C(OC(=O)C[n+]2cc(-c3ccc(Cl)cc3)n3c2CCCCC3)C1 (configuration not stated),-37,-39,nt,60*,nt,-4,30,-8,
O=C(COC(=O)c1ccccc1O)NC12CC3CC(CC(C3)C1)C2,6,-1,nt,nt,-19,3,nt,nt,
CCOc1ccccc1C(=O)Nn1c(C2CCC2)nc2ccccc2c1=O,-1,2,i,0,-8,16,-10,4,
FC(F)(F)c1cnc(N2CCC(=NOCc3ccc(Cl)cc3)CC2)c(Cl)c1,-1,-5,i,-11,-18,31,9,1,
COC(=O)c1cc(NC(=O)c2cc(C(C)(C)C)nn2Cc2cccc(C)c2)ccc1N1CCOCC1,-6,-7,i,4,-20,32,-8,8,
C[C@@H]1C=C(C(=O)N2CCN(Cc3ccc4c(c3)OCO4)CC2)O[C@H](OCCCCO)C1,1,-1,i,15,5,-5,1,7,
Cc1ccc(/C=C/C(=O)Nc2nccs2)o1,-7,3,i,-59,-19,16,-2,72,eIF4H inh retest=16;PABP polyA inh retest=33
O=C(NCCCCc1ccccc1)c1ccccc1,3,0,i,-1,nt,-16,-7,-4,
CC(Oc1cc(F)ccc1[N+](=O)[O-])C(=O)Nc1ccc(S(=O)(=O)N2CCCC2)cc1 (configuration not stated),-8,0,i,4,nt,nt,-2,8,
CC1CC(C)(C)N(C(=O)CN2C(=O)CCC2=O)c2ccccc21 (configuration not stated),nt,nt,i,6,-5,2,-6,-2,
Cc1cc(NS(=O)(=O)c2c(C(=O)N3CCOCC3)c(C)n(C)c2C)ccc1Br,6,1,i,23,18,0,10,-9,
CC(C)NC(=O)c1ccc2c(c1)N(CC(=O)NC1CCCCC1)C(=O)C(C)(C)O2,-1,3,i,-9,-8,nt,10,-1,
CC(C)C[C@@H](CNCC(=O)[C@H](CC(C)C)NC(=O)c1[nH]cnc1C(=O)N[C@H](CN)CC(C)C)NC(=O)c1nc[nH]c1C(=O)N[C@@H](CC(=O)O)C(=O)O,4,7,nt,-8,15,nt,nt,nt,
CCOc1ccc(S(=O)(=O)NCCSc2ccccc2)cc1,-2,4,i,-89,-2,8,-1,-4,
Cc1c(NC(=O)Nc2ccc(Cl)c(Cl)c2)c(=O)n(-c2ccccc2)n1C,-4,-2,nt,-5,-4,5,-5,-5,
COc1ccc(/C=C2\SC(=O)N(CCNC(=O)CN3C(=O)NC4(CCCC4)C3=O)C2=O)cc1,0,1,i,-22,-11,-5,nt,nt,
CCOc1cc2[nH]c(=O)n(CCC(=O)NCc3ccc(OC)cc3)c(=O)c2cc1OCC,-70,-62,i,-34,nt,-9,-13,6,
C[C@H](CO)N1C[C@H](C)[C@@H](CN(C)C(=O)Nc2ccc(C(F)(F)F)cc2)Oc2ccc(NS(=O)(=O)c3cccs3)cc2C1=O,1,3,nt,19,-5&-1,nt,nt,nt,
CCc1ccc(C2CC(c3ccc(Cl)cc3)=NNC2=O)cc1 (configuration not stated),5,-1,i,nt,1,-3,8,0,
COc1cc(C(=O)NCCC(C)C)ccc1OCc1ccc(Cl)cc1Cl,-21,-23,i,26,nt,-15,-2,2,
COC(=O)CS(=O)(=O)c1cc(Br)cc2c1N(C(C)=O)CC2,-1,5,i,nt,-4,-9,-4,6,
COc1ccc(C)c2sc(=NC(=O)c3ccccc3)n(C)c12,1,-1,i,-77,-15,17,-3,-2,
COc1ccc(-n2cnc3c(cnn3CCC#N)c2=N)cc1,-1,4,i,nt,-11,-9,3,0,
CCN(CC)C(=O)C1CCCN(c2ccc([N+](=O)[O-])cc2)C1 (configuration not stated),4,4,i,-41,nt,10,1,0,
COC(=O)c1ccc(N2CCN(C)CC2)c(NC(=O)c2cccnc2)c1,-2,2,i,0,-13,-9,8,1,
CN1C=CC=C/C1=C(\C#N)c1nc2ccccc2[nH]1,10,9,i,nt,-12,-10,7,-7,
CCOc1ccccc1N1CC(C(=O)Nc2ccccc2CC)CC1=O (configuration not stated),-2,-2,i,-9,-8,nt,14,10,
COCCN(C(=O)Cn1nnc2ccccc21)C(C(=O)NC1CCCC1)c1cccc(OC)c1OC (configuration not stated),-2,4,i,nt,-6,-13,7,8,
C[C@H]1CN([C@@H](C)CO)C(=O)c2cccc(NC(=O)Nc3ccc(F)cc3)c2O[C@@H]1CN(C)Cc1ccc(C(=O)O)cc1,0,1,nt,-4,-1&3,-19,nt,nt,

# Nothing new here: an excerpt of the list.
SMILES,MT1-MMP act inh,MT1-MMP act inh RFP,Rce1 inh,HIV Env fusion,Yeast UUG start,CSC inhib,PABP polyA inh,eIF4H inh,others
COC(=O)CS(=O)(=O)c1cc(Br)cc2c1N(C(C)=O)CC2,-1,5,i,nt,-4,-9,-4,6,
COc1ccc(C)c2sc(=NC(=O)c3ccccc3)n(C)c12,1,-1,i,-77,-15,17,-3,-2,
COc1ccc(-n2cnc3c(cnn3CCC#N)c2=N)cc1,-1,4,i,nt,-11,-9,3,0,
CCN(CC)C(=O)C1CCCN(c2ccc([N+](=O)[O-])cc2)C1 (configuration not stated),4,4,i,-41,nt,10,1,0,
COC(=O)c1ccc(N2CCN(C)CC2)c(NC(=O)c2cccnc2)c1,-2,2,i,0,-13,-9,8,1,
CN1C=CC=C/C1=C(\C#N)c1nc2ccccc2[nH]1,10,9,i,nt,-12,-10,7,-7,
CCOc1ccccc1N1CC(C(=O)Nc2ccccc2CC)CC1=O (configuration not stated),-2,-2,i,-9,-8,nt,14,10,
COCCN(C(=O)Cn1nnc2ccccc21)C(C(=O)NC1CCCC1)c1cccc(OC)c1OC (configuration not stated),-2,4,i,nt,-6,-13,7,8,
C[C@H]1CN([C@@H](C)CO)C(=O)c2cccc(NC(=O)Nc3ccc(F)cc3)c2O[C@@H]1CN(C)Cc1ccc(C(=O)O)cc1,0,1,nt,-4,-1&3,-19,nt,nt,

# New compounds follow.
SMILES,MT1-MMP act inh,MT1-MMP act inh RFP,Rce1 inh,HIV Env fusion,Yeast UUG start,CSC inhib,PABP polyA inh,eIF4H inh,others
Cc1ccc(C(=O)OCC(=O)Nc2ccc3[nH]c(=O)[nH]c3c2)o1,3,-2,i,-6,-20,4,nt,nt,
COc1ccc(-n2nc(C(=O)Nc3ccc4c(c3)OCO4)c3c4ccccc4n(C)c3c2=O)cc1,-2,-1,i,-16,7,-19,-1,11,
CN(C(=O)Nc1ccc(Cl)cc1Cl)C1CCCC1,-10,0,i,-31,nt,nt,-8,-6,
CC(OC(=O)CCN=C1NS(=O)(=O)c2ccccc21)C(=O)Nc1ccccc1F (configuration not stated),-3,-1,i,-11,nt,-12,nt,nt,
